Yeast UUG start: yeast start codon fidelity modulation | S. cerevisiae UUG-firefly luciferase reporter, luminescence/redox ratio | activity score, % at 18.7 µM | AID 602363 | hit rate 0.13% among 350,000;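 active = replicate mean at a twofold rise or more, about +100% in these data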;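 note: firefly luciferase made from a UUG start codon reports start codon fidelity; reporter light over untreated wells divided by growth signal over untreated wells; some hits fall short of that in this replicate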
PABP polyA inh: blocks human PABP binding to poly(A) RNA. fluorescence polarization. inhibition, % at 35 µM. hit rate 1% among 290,000. AID 2014;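 active = 50% or more with normal probe brightness, or confirmed in later tests; about a fifth of its hits are not listed in these tables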;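 note: calls also rest on retests at 20 µM and on dose response follow-up; controls were probe without protein and protein plus probe with vehicle; some compounds called inactive have numbers as strong as hits; many hits fall short of the cut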
MT1-MMP act inh: MT1-MMP (human) activation inhibition; GFP/RFP ratio change, % at 20 µM; P50281; HT1080 RFP-PRO-GFP cells, GFP/RFP ratio fluorescence, overnight; percent of plate control window, DMSO zero; hit rate 0.061% among 360,000;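 active = GFP/RFP ratio change of at least 30% with cell ATP level not reduced by more than half and red fluorescence within 50% of control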; note: strong numbers were not always called active
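Read-out: GFP/RFP fluorescence ratio; Test system: RFP-PRO-GFP reporter HT1080 cells; Compound dosing: single-point 20 µM compound, 1% DMSO; Times: overnight compound exposure at 37 °C.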
Rce1 inhib: blocks yeast Ras-converting enzyme. yeast membranes, quenched prenylated peptide cleavage fluorescence. calls only. hit rate 0.27% among 290,000. AID 2563;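 active = fall in fluorescence gain of 50% or more versus controls, with final raw signal at or below 3038400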;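 note: plate controls were neutral control wells for no effect and wells lacking membranes for full effect; tested at 10 µM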
Target sequence (Q03530 whole entry, looked up): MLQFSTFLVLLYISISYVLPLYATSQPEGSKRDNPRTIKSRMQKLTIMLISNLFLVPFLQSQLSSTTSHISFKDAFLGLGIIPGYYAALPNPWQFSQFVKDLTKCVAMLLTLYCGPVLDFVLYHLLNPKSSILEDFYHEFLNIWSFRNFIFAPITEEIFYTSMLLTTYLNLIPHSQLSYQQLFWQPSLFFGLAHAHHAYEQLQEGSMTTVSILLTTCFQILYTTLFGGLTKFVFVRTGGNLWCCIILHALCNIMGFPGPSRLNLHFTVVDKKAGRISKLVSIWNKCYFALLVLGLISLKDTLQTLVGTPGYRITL
eIF4H inh: inhibitors of RNA binding by human eIF4H | AID 2012 | eIF4H fluorescence polarization binding assay | Q15056 | hit rate 0.94% among 290,000 | inhibition, % at 35 µM;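 active = 50% or more with normal probe brightness, or confirmed in later tests; about a fifth of its hits are not listed in these tables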;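 note: calls also rest on retests at 20 µM and on dose response follow-up; 0% = protein and probe with vehicle and 100% = probe without protein; strong numbers were not always called active; many hits fall short of the cut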
Env fusion inh: HIV envelope-mediated fusion inhibition; HeLa-JRFL Env/CEM21 cell fusion, luciferase; inhibition, % at 12.3 µM; hit rate 1.1% among 360,000; AID 651610;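 active = mean replicate inhibition score of at least 50 and every replicate individually at or above 50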;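 note: 0% = plate neutral controls and 100% = maraviroc near 300 nM; one replicate is shown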
CSC inhib: cancer stem cell inhibition. AID 2717. inhibition, % at 7.5 µM. hit rate 1.1% among 300,000. cancer stem cell-like cells viability, luminescence;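 active = mean at 75% or more and at least half the replicates too; tested in HMLE shEcad cells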;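 note: 0% = median of negative and 100% = median of positive control wells; the first replicate is given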
eIF4H inh retest: also measured in eIF4H inh; calls as there; inhibition, %; compound at 20 µM; confirmation average;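 mean of two retest wells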
PABP polyA inh retest: second read-out of PABP polyA inh, no call of its own (marks repeat the call); inhibition, %; compound at 20 µM; confirmation repeats;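 mean of two retest wells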
MT1-MMP act inh RFP: further read-out of MT1-MMP act inh, marked with its call; RFP signal change, %; measured here: RFP expression control read;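 0 = vehicle wells; hits needed this value within 50% of zero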
* marks the source's active call; other numbers are inactive results. A portion of the library; rates above refer to the full screens.

Start of the data: the first 2 compounds, ahead of the listing:
Screening O=C(O)CCCCn1c(SCc2cc(=O)n3cc(Cl)ccc3n2)nc2ccsc2c1=O returned PABP polyA inh -2, MT1-MMP act inh 1, Rce1 inhib inactive, eIF4H inh 1, Env fusion inh -9, CSC inhib 17 and MT1-MMP act inh RFP -3.
Screening CN(CC(=O)Nc1ccccc1Br)C(=O)c1cc([N+](=O)[O-])ccc1N1CCOCC1 returned Yeast UUG start 8, MT1-MMP act inh -5, Rce1 inhib inactive, Env fusion inh 7, CSC inhib -2 and MT1-MMP act inh RFP -4.

The whole of this part, from the first entry:
Screening O=C(O)CCCCn1c(SCc2cc(=O)n3cc(Cl)ccc3n2)nc2ccsc2c1=O returned PABP polyA inh -2, MT1-MMP act inh 1, Rce1 inhib inactive, eIF4H inh 1, Env fusion inh -9, CSC inhib 17 and MT1-MMP act inh RFP -3.
Screening CN(CC(=O)Nc1ccccc1Br)C(=O)c1cc([N+](=O)[O-])ccc1N1CCOCC1 returned Yeast UUG start 8, MT1-MMP act inh -5, Rce1 inhib inactive, Env fusion inh 7, CSC inhib -2 and MT1-MMP act inh RFP -4.
`O=C(Cc1cccc(NC(=O)C2CCN(C(=O)C3CCCC3)CC2)c1)Nc1cccc(C(=O)N2CCCCC2)c1` gave Yeast UUG start 26, MT1-MMP act inh 1, Env fusion inh -17 and MT1-MMP act inh RFP -2.
Screening O=C(CN(C1CCCCC1)S(=O)(=O)c1ccc(Br)cc1)NCc1cccnc1 returned PABP polyA inh 6, MT1-MMP act inh -1, Rce1 inhib inactive, eIF4H inh -2, Env fusion inh 29, CSC inhib -5 and MT1-MMP act inh RFP 5.
`CC(C)CC1NC(=O)N(Cc2cc(=O)n3ccsc3n2)C1=O` (configuration not stated) gave PABP polyA inh -7, MT1-MMP act inh -2, eIF4H inh 18, Env fusion inh 7, CSC inhib -2 and MT1-MMP act inh RFP 3.
`O=C(CCc1c[nH]c2ccccc12)NC(Cc1c[nH]c2ccccc12)C(=O)O` (configuration not stated) gave Yeast UUG start -4, PABP polyA inh 10, MT1-MMP act inh -3, Rce1 inhib inactive, eIF4H inh 2, Env fusion inh -55, CSC inhib -7 and MT1-MMP act inh RFP 8.
`CC1(C)CC(=O)C(N=Nc2ccc(-c3ccccc3)cc2)=C(O)C1` gave PABP polyA inh -5, MT1-MMP act inh -21, Rce1 inhib inactive, eIF4H inh 66, Env fusion inh 9, CSC inhib 2, eIF4H inh retest 2, PABP polyA inh retest -2 and MT1-MMP act inh RFP -4.
Screening C1CN(c2nc3nonc3nc2N2C[C@H]3CC[C@H]2C3)CCS1 returned PABP polyA inh 4, MT1-MMP act inh -2, Rce1 inhib inactive, eIF4H inh 8, Env fusion inh -3, CSC inhib -3 and MT1-MMP act inh RFP 5.
Screening COc1ccc(CN2CCN(c3nc4ccccc4s3)CC2)cc1 returned Yeast UUG start -32, PABP polyA inh -5, MT1-MMP act inh 0, Rce1 inhib inactive, eIF4H inh -7, Env fusion inh -5 and MT1-MMP act inh RFP -5.
C/C(=N\Nc1nc(C)cc(C)n1)c1ccc(C)o1 was read as Yeast UUG start -20, PABP polyA inh 2, MT1-MMP act inh 1, Rce1 inhib inactive, eIF4H inh 1, Env fusion inh -17, CSC inhib -3 and MT1-MMP act inh RFP -1.
`CCN1CCn2c3c(c4cc(Cl)ccc42)CCCC31` (configuration not stated) gave Yeast UUG start 0, PABP polyA inh 15, MT1-MMP act inh 7, Rce1 inhib inactive, eIF4H inh -5, CSC inhib 23 and MT1-MMP act inh RFP -2.
`COc1ccc(CNC(=O)C2=CC(c3ccc(OC)c(OC)c3)=NS(=O)(=O)N2C)cc1` gave Yeast UUG start 3, PABP polyA inh -6, MT1-MMP act inh -5, Rce1 inhib inactive, eIF4H inh -11, CSC inhib -2 and MT1-MMP act inh RFP -3.
For Cc1nc2ccc(NC(=O)c3cccs3)cc2s1 the results were Yeast UUG start -10, PABP polyA inh 6, MT1-MMP act inh 2, Rce1 inhib inactive, eIF4H inh -8, Env fusion inh -51, CSC inhib 4 and MT1-MMP act inh RFP 2.
COc1cccc(C(C)NC(=S)NCc2ccc(Cl)cc2)c1 (configuration not stated) was read as PABP polyA inh -6, MT1-MMP act inh 2, Rce1 inhib inactive, eIF4H inh -9, Env fusion inh 10, CSC inhib 10 and MT1-MMP act inh RFP 2.
Screening Cc1ccccc1NC(=O)Cn1nc(-c2ccc(Cl)s2)ccc1=O returned Yeast UUG start -12, PABP polyA inh 5, MT1-MMP act inh 4, Rce1 inhib inactive, eIF4H inh -8, Env fusion inh -4, CSC inhib -5 and MT1-MMP act inh RFP 4.
For O=S(=O)(c1ccc(SCCO)nc1)N1CCOCC1 the results were Yeast UUG start -15, MT1-MMP act inh 0, CSC inhib -17 and MT1-MMP act inh RFP 4.
`CCOc1ccc(NCC2CCOC(C)(C)C2)cc1` (configuration not stated) gave Yeast UUG start -14, PABP polyA inh -7, MT1-MMP act inh 5, eIF4H inh -6, CSC inhib -17 and MT1-MMP act inh RFP 9.
Screening Cc1ccc(-n2ncc3c2CC(C)(C)CC3NC(=O)CN2CCCC2=O)cc1 (configuration not stated) returned Yeast UUG start -1, PABP polyA inh -5, MT1-MMP act inh -3, Rce1 inhib inactive, eIF4H inh -2, Env fusion inh -1, CSC inhib -11 and MT1-MMP act inh RFP -1.
Screening CC(C(=O)Nc1ncccn1)(c1ccccc1)c1ccccc1 returned PABP polyA inh -5, MT1-MMP act inh 0, Rce1 inhib inactive, eIF4H inh 0, Env fusion inh 7, CSC inhib 5 and MT1-MMP act inh RFP 2.
`CCOC(=O)N1CCN(c2nc(-c3ccc(Cl)cc3)cs2)CC1` gave PABP polyA inh -5, MT1-MMP act inh 11, Rce1 inhib inactive, eIF4H inh 7, CSC inhib -3 and MT1-MMP act inh RFP -15.
For COc1ccc(CCN2CC(C(=O)NCc3cccc(F)c3)CCC2=O)cc1 (configuration not stated) the results were Yeast UUG start -1, MT1-MMP act inh 1, Env fusion inh 13 and MT1-MMP act inh RFP 4.
`CSc1nnc(SCC(=O)N(C)c2c(N)n(Cc3ccccc3)c(=O)[nH]c2=O)s1` gave Yeast UUG start 6, MT1-MMP act inh 4, Rce1 inhib inactive, Env fusion inh 3 and MT1-MMP act inh RFP 2.
Cc1cc(NC(=O)CSc2nc(-c3ccc(F)cc3)cs2)no1 was read as Yeast UUG start -1, PABP polyA inh -2, MT1-MMP act inh 3, Rce1 inhib inactive, eIF4H inh -6, Env fusion inh -29, CSC inhib -9 and MT1-MMP act inh RFP 1.
Screening Cc1cccc(CN2CCN(C3CN(CCc4ccccc4)S(=O)(=O)C3)CC2)c1 (configuration not stated) returned Yeast UUG start -6, MT1-MMP act inh 5, Env fusion inh -3 and MT1-MMP act inh RFP 4.
Screening Cc1cc(=O)[nH]c2c3ccccc3nn12 returned PABP polyA inh 2, MT1-MMP act inh -1, Rce1 inhib inactive, eIF4H inh -4, Env fusion inh 8, CSC inhib 2 and MT1-MMP act inh RFP 3.
Screening Cc1c(Cl)cccc1N=C1NC(=O)CS1 returned Yeast UUG start 1, MT1-MMP act inh 0, Env fusion inh -5 and MT1-MMP act inh RFP 0.
`CCOC(=O)c1ccc[n+](CC(=O)Nc2ccccc2OC(F)F)c1` gave PABP polyA inh 5, MT1-MMP act inh -21, Rce1 inhib inactive, eIF4H inh 38, Env fusion inh 3, CSC inhib 1 and MT1-MMP act inh RFP -4.
`O=C(CN1C(=O)c2ccccc2C1=O)NCC1CCCO1` (configuration not stated) gave Yeast UUG start 6, PABP polyA inh -2, MT1-MMP act inh 6, Rce1 inhib inactive, eIF4H inh -4, CSC inhib 6 and MT1-MMP act inh RFP 8.
O=C(Nc1cc(=O)[nH]c2nc(-c3ccc(Cl)cc3)nn12)c1ccccc1 was read as PABP polyA inh -8, Rce1 inhib inactive, eIF4H inh 8 and CSC inhib 15.
For CCC(C)CCCCNC1=NCCS1 (configuration not stated) the results were PABP polyA inh 2, MT1-MMP act inh 2, Rce1 inhib inactive, eIF4H inh -5, Env fusion inh -16, CSC inhib -4 and MT1-MMP act inh RFP 3.
`Cc1ccc(/C=C/C(=O)Nc2nn[nH]n2)o1` gave PABP polyA inh 6, MT1-MMP act inh -8, Rce1 inhib inactive, eIF4H inh 38, Env fusion inh -9, CSC inhib -1 and MT1-MMP act inh RFP 1.
`COc1ccc(C(O)c2nc(-c3ccc4ccccc4c3)cs2)cc1` (configuration not stated) gave Yeast UUG start -16, MT1-MMP act inh -6, Env fusion inh -36 and MT1-MMP act inh RFP -16.
Screening COCCNC(=O)/C(C#N)=C/C=C/c1ccccc1[N+](=O)[O-] returned PABP polyA inh 12, MT1-MMP act inh -38, Rce1 inhib inactive, eIF4H inh 2, Env fusion inh -30, CSC inhib 21 and MT1-MMP act inh RFP -19.
Screening O=S1(=O)CC/C(=N\Nc2ccc(F)cc2)c2ccsc21 returned PABP polyA inh -3, MT1-MMP act inh -1, Rce1 inhib inactive, eIF4H inh -7, Env fusion inh -64, CSC inhib 9 and MT1-MMP act inh RFP 0.
COc1cc2c(C(=O)N3CCN(Cc4ccc5c(c4)OCO5)CC3)cn(C)c(=O)c2cc1OC was read as Yeast UUG start -14, PABP polyA inh -6, MT1-MMP act inh 2, Rce1 inhib inactive, eIF4H inh -2, Env fusion inh 3, CSC inhib 6 and MT1-MMP act inh RFP -1.
`O=C(CCS(=O)(=O)c1ccc(Cl)cc1)Nc1nccs1` gave Yeast UUG start -16, MT1-MMP act inh -3, Env fusion inh -3 and MT1-MMP act inh RFP 0.
`COC(CNC(=O)c1ccc2c(c1)ncn2-c1ccc(C)cc1C)OC` gave Yeast UUG start -9, PABP polyA inh -5, MT1-MMP act inh 6, Rce1 inhib inactive, eIF4H inh -5, Env fusion inh -1, CSC inhib -1 and MT1-MMP act inh RFP 2.
CCn1c2ccccc2c2nnc(SCCCn3c(=O)[nH]c4ccccc43)nc21 was read as Yeast UUG start 11, PABP polyA inh 1, MT1-MMP act inh 6, eIF4H inh 6, CSC inhib 0 and MT1-MMP act inh RFP -12.
For O=C1CC(N2CCC(c3nc4ccccc4[nH]3)CC2)C(=O)N1c1ccccc1F (configuration not stated) the results were Yeast UUG start -14, PABP polyA inh -7, MT1-MMP act inh 3, Rce1 inhib inactive, eIF4H inh -3, Env fusion inh -29, CSC inhib -10 and MT1-MMP act inh RFP -5.
CCCn1nc(NS(=O)(=O)c2cccc3nonc23)c2cc3ccccc3nc21 was read as Yeast UUG start -14, PABP polyA inh 19, MT1-MMP act inh 0, Rce1 inhib inactive, eIF4H inh -10, Env fusion inh -2, CSC inhib 4 and MT1-MMP act inh RFP 3.
For CC(C)N(C)c1ncnc2c1ncn2[C@H]1CN(Cc2ccco2)C[C@@H](CO)O1 the results were Yeast UUG start -6, MT1-MMP act inh 0, Env fusion inh -8 and MT1-MMP act inh RFP 5.

3 entries out of the list, arranged by number of heavy atoms, ascending:
Screening O=S1(=O)CC/C(=N\Nc2ccc(F)cc2)c2ccsc21 returned PABP polyA inh -3, MT1-MMP act inh -1, Rce1 inhib inactive, eIF4H inh -7, Env fusion inh -64, CSC inhib 9 and MT1-MMP act inh RFP 0.
`COC(CNC(=O)c1ccc2c(c1)ncn2-c1ccc(C)cc1C)OC` gave Yeast UUG start -9, PABP polyA inh -5, MT1-MMP act inh 6, Rce1 inhib inactive, eIF4H inh -5, Env fusion inh -1, CSC inhib -1 and MT1-MMP act inh RFP 2.
For O=C1CC(N2CCC(c3nc4ccccc4[nH]3)CC2)C(=O)N1c1ccccc1F (configuration not stated) the results were Yeast UUG start -14, PABP polyA inh -7, MT1-MMP act inh 3, Rce1 inhib inactive, eIF4H inh -3, Env fusion inh -29, CSC inhib -10 and MT1-MMP act inh RFP -5.

High-throughput results deposited in PubChem by several laboratories.
